RecA splice inh: Mtb RecA intein splicing inhibition; P9WHJ3; cell-free RecA intein splicing, fluorescence; inhibition, %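 (about 9 µM by stock and volumes)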; 290,000 tested, 0.75% active; AID 2221; in the data active = inhibition above about 30%; inconclusive = no clear call, values can overlap the other calls;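 also: 0% = vehicle wells and 100% = reference inhibitor control wells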
Target sequence (P9WHJ3 whole entry, looked up, canonical isoform): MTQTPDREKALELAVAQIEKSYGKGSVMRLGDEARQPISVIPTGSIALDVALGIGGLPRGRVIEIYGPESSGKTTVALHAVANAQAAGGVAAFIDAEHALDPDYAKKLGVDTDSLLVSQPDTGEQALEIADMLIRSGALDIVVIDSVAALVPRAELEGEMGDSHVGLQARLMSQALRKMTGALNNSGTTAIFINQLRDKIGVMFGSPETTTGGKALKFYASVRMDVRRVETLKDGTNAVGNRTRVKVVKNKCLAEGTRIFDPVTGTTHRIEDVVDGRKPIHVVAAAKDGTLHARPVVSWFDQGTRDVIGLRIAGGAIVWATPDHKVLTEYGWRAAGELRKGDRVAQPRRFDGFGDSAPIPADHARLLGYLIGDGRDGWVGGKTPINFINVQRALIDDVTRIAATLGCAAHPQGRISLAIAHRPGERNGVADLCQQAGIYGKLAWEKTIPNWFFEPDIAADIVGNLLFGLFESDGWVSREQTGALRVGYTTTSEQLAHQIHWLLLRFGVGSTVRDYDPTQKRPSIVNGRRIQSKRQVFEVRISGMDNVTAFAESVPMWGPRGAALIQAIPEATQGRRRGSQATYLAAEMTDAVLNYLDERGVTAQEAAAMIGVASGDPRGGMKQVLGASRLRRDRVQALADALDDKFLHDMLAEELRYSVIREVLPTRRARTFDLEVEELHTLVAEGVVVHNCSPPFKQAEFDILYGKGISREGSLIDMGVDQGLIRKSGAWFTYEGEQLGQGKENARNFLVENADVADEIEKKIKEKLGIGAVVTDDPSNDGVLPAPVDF
Arbovirus anti: antivirals against arbovirus infection | arbovirus infection cell-based antiviral screen | inhibition, % at 10 µM | 200,000 tested, 0.37% active;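 active = inhibition from about 30%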;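 also: bluetongue infection of BSR cells; cell survival read as ATP light after 72 h; 0% = infected wells without compound and 100% = uninfected wells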
YopH PTP inh: YopH (Yersinia) phosphatase inhibition | 140,000 tested, 0.16% active | inhibition, %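 (about 10 µM by stock and volumes)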 | fluorescence Ex485/Em525;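 active = inhibition of 50% or more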;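 also: controls were vehicle for no effect and minimum signal wells for full effect; inactives centre near -20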
Mtb growth: M. tuberculosis H37Rv growth inhibitors, H37Rv strain (AID 1626). M. tuberculosis H37Rv growth inhibition; higher % means a stronger effect. inhibition, % at 10 µM; hits with a dose series show IC50 in µM. 220,000 tested, 0.95% active;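 active = confirmed in a dose series; inconclusive = inhibition above 80% but not taken into the dose series; inactive = below 80% or under 30% at every dose of the series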;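 also: bacteria incubated seven days before Alamar blue readout; 0% = bacteria only wells and 100% = bacteria with antibiotic wells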
Mtb betalactam: beta-lactam sensitization of Mtb H37Rv; AID 434955; M. tuberculosis H37Rv growth with meropenem, percent inhibition; hits of this screen are not shown here; 330,000 tested, 0.27% active; inhibition, % at 25 µM;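 active = about 74% or more and at least 40 points above the plate without the antibiotic, then above 30% in a dose series; inconclusive = first-round hits that could not be retested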;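 also: growth measured after seven days incubation then overnight dye step; 0% = bacteria only wells and 100% = bacteria with antibiotic; twin plates without the antibiotic show which effects depend on it; some results filed as inactive read as strong as hits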
Arbovirus anti repeat: recorded beside Arbovirus anti, whose call it bears; inhibition, %; measured here: 10K subset replicate screen; many hits read low in the repeat;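 first of two repeat runs on a subset; 0% = infected and 100% = uninfected wells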
* hit, by the source's call; ? = inconclusive; . = no result given. A portion of the library, so the mix of outcomes need not match the whole.

SMILES	RecA splice inh	Arbovirus anti	YopH PTP inh	Mtb growth	Mtb betalactam	others
CCOC(=O)c1c(NC(=O)COC(=O)Cn2c(C)nc3ccccc32)sc2c1CCCC2	-5.5	-1.2	-31.9	10.2%	-1.1
CCOC(=O)c1c(N)sc(C(=O)N(C)C)c1C	-1.0	0.9	-39.3	9.2%	3.6
Cc1cc(SCc2ccc(C(F)(F)F)cc2)nc(=O)[nH]1	0.0	.	.	.	7.4
O=C(Nc1nc2ccc(S(=O)(=O)N3CCCCC3)cc2s1)c1cccnc1	-3.9	-1.9	-3.5	-2.9%	-5.6
CS(=O)(=O)N(Cc1ccccc1)c1ccc(C(=O)N2CCc3ccccc3C2)cc1	2.7	5.6	-4.1	-17.1%	-10.6
Cn1cc(CN2CCN(CCc3ccccc3)C(CCO)C2)cn1 (stereo not given)	-0.6	-0.7	.	3.0%	2.3
C=CCn1c(SCC(=O)Nc2ccccc2F)nnc1C(C)NC(=O)c1ccccc1F (stereo not given)	-0.5	.	.	.	-5.6
CC(=O)N1CCc2cc(S(=O)(=O)CCC(=O)Nc3cc(C)cc(C)c3)ccc21	-0.4	.	.	.	0.6
COc1ccc(C)cc1NC1=C(Cl)C(=O)N(C2CCCCC2)C1=O	0.2	4.0	-12.5	4.0%	20.9
CCN(CC(=O)Nc1c(F)cccc1F)C(=O)c1ccc(C(=O)c2ccccc2)cc1	-3.1	.	.	.	-8.8
COc1ccc(N2CCN(C(=O)C34CCC(C)(C(=O)C3)C4(C)C)CC2)cc1 (stereo not given)	-3.3	24.0	-38.2	-2.7%	-3.6	Arbovirus anti repeat=7.1
C=CSc1sc(Cl)c(N(C)C)c1[N+](=O)[O-]	6.3	2.1	.	9.9%	-3.5
O=C(Nc1ccc([N+](=O)[O-])cc1)OCCc1ccccn1	-2.9	.	.	.	6.0
CNC(=S)SCCOc1ccc(C)cc1	3.5	15.1	-26.7	1.6%	-0.5
CN1CCC(N(C)C(=O)NC2CCCCC2)CC1	1.0	2.9	.	4.7%	-3.2
COc1ccc2c(c1OC)C(=O)OC2Nc1ccc(S(=O)(=O)N=C(N)N)cc1 (stereo not given)	-0.9	.	.	-5.0%	1.9
C=CCNC(=O)c1cc2c(C(F)(F)F)nn(C)c2s1	-0.3	-3.3	-39.0	1.6%	-2.3
O=C(c1ccc2c(c1)OCO2)N(Cc1ccco1)C1(C(=O)NC2CCCCC2)CCCCC1	5.8	-10.9	-2.5	0.8%	-2.9
CCCC(=O)N1CCN(c2nc(CC(C)C)c3c(c2C#N)CCC3)CC1	9.4	-18.6	-40.3	.	35.5
COc1ccc(C2/C(=C(/O)c3ccc(C)cc3)C(=O)C(=O)N2C)c(OC)c1 (stereo not given)	1.2	.	.	.	-4.1
CN1CCN(C(=O)c2cc(Cl)ccc2Cl)CC1	-0.1	7.2	-44.4	8.3%	-15.0
Cc1ccc(C)c2c1sc(=NC(=O)CN1C(=O)CCC1=O)n2C	-1.0	-1.6	-36.3	5.2%	5.3	Arbovirus anti repeat=3.8
COc1ccc(N2CCN(C(CNC(C)=O)c3ccco3)CC2)cc1 (stereo not given)	-6.3	0.6	.	7.6%	-2.5
CCCCn1c(CNC(=O)C(C)(C)C)nc2ccccc21	-0.8	6.0	-28.4	0.3%	-0.3	Arbovirus anti repeat=3.6
Cn1c(N)nc2nc(CCc3ccccc3)c(=O)[nH]c2c1=O	-164.6	.	.	.	8.0

The list continues:
SMILES	RecA splice inh	Arbovirus anti	YopH PTP inh	Mtb growth	Mtb betalactam	others
CCOC(=O)C1(Cc2ccccc2)CCCN(Cc2cccc(C(C)=O)c2)C1 (stereo not given)	2.8	0.3	.	3.1%	6.9
CN(Cc1ccccc1)C(NC(=O)c1ccco1)C(Cl)(Cl)Cl (stereo not given)	5.8	1.9	.	-6.4%	5.3
OCCC1CN(Cc2cn[nH]c2C2CCCCC2)CCN1C1CCCC1 (stereo not given)	0.6	-0.8	.	-1.9%	-0.7
C#CCOCCOCCOCCNc1nc(N2CCN(C(=O)Cn3cc(CCCN=C(N)N)nn3)CC2)nc(N2CCN(C(=O)Cn3cc(CCCN=C(N)N)nn3)CC2)n1	.	4.8	-30.8	.	.
O=C(COC(=O)c1ccccc1O)Nc1ncc(Cl)cc1Cl	4.8	2.2	.	-11.2%	-1.5
O=[N+]([O-])c1ccc(C[n+]2cc(-c3ccccc3)n3c2CCCCC3)cc1	-0.5	5.9	.	-0.4%	5.3
CCN(Cc1nc(-c2ccc(C)cc2)no1)C(=O)c1ccco1	2.0	.	.	.	2.1
O=C(CN1C(=O)c2ccccc2C1=O)NCc1ccncc1	-0.9	1.4	-37.9	-2.2%	-0.8
Cc1ccc(C(=O)NC(C#N)=C(Cl)Cl)cc1	33.2*	-36.5	.	2.3%	.
CCOC(=O)N1CCN(c2cc(=O)n(-c3ccc(C)cc3)c(=O)[nH]2)CC1	-1.4	0.5	.	0.7%	-4.8
CCC(C)n1c(SCc2ccc([N+](=O)[O-])cc2)nc2ccsc2c1=O (stereo not given)	19.6	28.5	-17.1	12.2%	16.2
Cn1c(=O)c(C(=O)NNC(=O)c2ccccc2Br)c(O)c2ccccc21	0.6	.	.	.	37.7
O=C(O)c1cc(Cl)c(Cl)cc1C(=O)Nc1cccc2cccnc12	4.6	-9.6	-32.2	1.3%	1.8
COc1ccc(OC)c(-c2cc(C(=O)Nc3ccc(F)cc3F)no2)c1	0.5	-13.0	.	2.3%	-3.3
CCOc1ccc(CNC(=O)CN2C(=O)C(c3ccccc3)Oc3cccnc32)cc1 (stereo not given)	0.8	.	.	.	-6.6
CCOc1ccc(N(CC(=O)NCCC2=CCCCC2)S(=O)(=O)c2ccccc2)cc1	0.7	2.0	.	0.7%	3.1
COc1ccccc1NC(=O)c1cc(S(=O)(=O)N2CCCC2)cn1C	1.4	.	.	.	-4.8
CCC(=O)Nc1ccc(OCC2CCCO2)cc1 (stereo not given)	0.9	.	.	.	-2.4
CC(C)(C)n1nnnc1CN(Cc1ccco1)Cc1cc2cc3c(cc2[nH]c1=O)OCO3	-1.8	5.3	-32.4	-0.3%	-5.4
O=C(Cc1ccccc1[N+](=O)[O-])Nc1ccc2c(c1)OCO2	0.0	-0.9	.	1.8%	-8.9
O=C(N=Nc1c(O)[nH]c2ccc([N+](=O)[O-])cc12)c1ccccc1[N+](=O)[O-]	17.1	.	.	-4.2%	-8.9
CCc1nc(SCC(=O)N2CCCCC2)c2c(=O)n(C)c(=O)n(C)c2n1	0.1	.	.	.	-0.5
CCC(C)n1c(OC)nc2c1c(=O)n(C)c(=O)n2C (stereo not given)	-0.3	6.9	.	-6.2%	-0.4
CN(Cc1ccccc1)C(=O)COC(=O)c1cc([N+](=O)[O-])ccc1N1CCOCC1	1.2	.	.	.	1.8
CC1(C)CC(NC(=O)c2ccncc2)CC(C)(C)N1O	-4.9	2.5	.	-0.7%	-8.4

(cont.)
SMILES	RecA splice inh	Arbovirus anti	YopH PTP inh	Mtb growth	Mtb betalactam	others
CCCCCc1ccc(-c2cn(CC3CCCCC3)nn2)cc1	-1.7	.	.	.	0.9
C#CCOCCOCCOCCNc1nc(N2CCN(C(=O)[C@H]([C@@H](C)CC)n3cc([C@@H](N)Cc4ccc(O)cc4)nn3)CC2)nc(N2CCN(C(=O)[C@H](CCCCN)n3cc([C@@H](N)CO)nn3)CC2)n1	0.1	2.9	.	.	1.6
Cc1c(OCC(=O)N[C@@H](Cc2ccccc2)C(=O)O)ccc2c3c(c(=O)oc12)CCC3	5.3	.	.	.	-14.2
O=C(Nc1ncccc1Cl)C1COc2ccccc2O1 (stereo not given)	5.5	-3.2	-21.6	-6.5%	8.6
NS(=O)(=O)c1ccc(CCNC(=O)CSc2nc3ccsc3c(=O)n2C2CC2)cc1	1.3	-6.5	-24.2	-7.2%	-1.5
Cc1n[nH]c(C)c1S(=O)(=O)N1CCCC(C(=O)N2CCc3ccccc32)C1 (stereo not given)	-2.1	-2.2	-31.9	0.8%	5.8
COc1ccc(-c2c(C)nn(-c3ccccc3)c2N)cc1	-2.1	-6.7	5.2	4.1%	9.2
CCN(CC)S(=O)(=O)c1ccc2[nH]c(=O)c3ccccc3c2c1	-0.7	.	.	.	1.7
Cc1cccc(NC(=O)CSc2nnc(CNC(=O)c3ccco3)n2C)c1C	-0.9	.	.	.	-0.8
COc1ccccc1N1CCN(S(=O)(=O)c2ccc3nc(-c4ccccc4)[nH]c3c2)CC1	9.8	3.5	-15.1	10.2%	.
O=c1[nH]n(-c2ccccc2)c(=O)c(Cl)c1Cl	1.4	1.5	-34.0	5.3%	-0.2
Cc1cccc(CSc2nc(N)c(C#N)c(-c3cccs3)c2C#N)c1	2.5	10.7	-4.7	3.6%	-10.4
O=C(COc1cccc2ccccc12)NNC(=O)c1cnccn1	0.0	-28.4	-28.1	?	88.4
O=C1C(=O)N(CNc2ccccn2)c2ccccc21	-4.6	-6.4	4.9	-7.9%	8.5
Cc1ccc(-n2nnnc2SCC(=O)c2c(N)n(CC(C)C)c(=O)n(C)c2=O)cc1	-0.3	-10.1	-47.6	-4.8%	-7.3
CC(C(=O)c1ccc(-c2ccccc2)cc1)[n+]1cccc(Br)c1 (stereo not given)	0.2	.	.	.	3.7
CC(=O)Nc1cccc2c1C(=O)N(c1ccccc1C)C2=O	-0.3	-0.3	.	-1.2%	5.4
CSc1nc2c(c(=O)[nH]c(=O)n2C)n1Cc1ccccc1	-0.1	.	.	.	1.4
C=CCc1ccc(OCCOc2cccc(/C=N/n3cnnc3)c2)c(OC)c1	1.0	.	9.7	8.1%	37.1
Cc1ccc(NC(=O)c2sc3nc(N)c(C#N)cc3c2N)cc1	-0.2	1.8	-13.4	3.5%	7.2
Cc1ccc2[nH]cc(CCNC(=O)c3cccnc3)c2c1	-0.5	-5.9	-10.0	0.3%	-0.2
CCOC(=O)c1c(C)n(CCO)c2ccc(O)cc12	-3.8	-0.3	-22.8	-5.8%	5.2
CC1(C(=O)NC2CCCCCC2)CCC(=O)N1Cc1ccc2c(c1)OCO2 (stereo not given)	-5.2	-0.8	-17.1	1.1%	0.5
CCn1c(SCC(=O)NCC2CCCO2)nc2c(c1=O)SC(C)C2 (stereo not given)	-1.3	3.2	-19.1	4.9%	-5.2	Arbovirus anti repeat=1.6
O=C(NCc1ccncc1)c1ccc(S(=O)(=O)Nc2ccccc2)cc1	2.7	.	.	.	-6.7

7 entries out of the list, sorted by count of non-hydrogen atoms, descending.
SMILES	RecA splice inh	Arbovirus anti	YopH PTP inh	Mtb growth	Mtb betalactam	others
NS(=O)(=O)c1ccc(CCNC(=O)CSc2nc3ccsc3c(=O)n2C2CC2)cc1	1.3	-6.5	-24.2	-7.2%	-1.5
C=CCc1ccc(OCCOc2cccc(/C=N/n3cnnc3)c2)c(OC)c1	1.0	.	9.7	8.1%	37.1
Cc1n[nH]c(C)c1S(=O)(=O)N1CCCC(C(=O)N2CCc3ccccc32)C1 (stereo not given)	-2.1	-2.2	-31.9	0.8%	5.8
O=C(NCc1ccncc1)c1ccc(S(=O)(=O)Nc2ccccc2)cc1	2.7	.	.	.	-6.7
CCn1c(SCC(=O)NCC2CCCO2)nc2c(c1=O)SC(C)C2 (stereo not given)	-1.3	3.2	-19.1	4.9%	-5.2	Arbovirus anti repeat=1.6
Cc1ccc(NC(=O)c2sc3nc(N)c(C#N)cc3c2N)cc1	-0.2	1.8	-13.4	3.5%	7.2
O=c1[nH]n(-c2ccccc2)c(=O)c(Cl)c1Cl	1.4	1.5	-34.0	5.3%	-0.2

Going on with the list.
SMILES	RecA splice inh	Arbovirus anti	YopH PTP inh	Mtb growth	Mtb betalactam	others
Cc1c(C)c2c(OCC(=O)N3CCC(C(=O)O)CC3)cc3c(c2oc1=O)CCC(C)(C)O3	-0.7	.	.	.	6.7
NS(=O)(=O)c1ccc(CNC(=O)/C=C/c2ccccc2[N+](=O)[O-])cc1	9.0	-2.8	.	-8.4%	-8.0
Cc1cccc(N2C(=O)CN=C2Nc2nc(C)cc(C)n2)c1	-1.9	5.8	-20.0	-1.4%	1.8
CC[n+]1c(C)sc2c(C)cc(C)cc21	-2.1	-16.1	-33.7	-7.8%	-1.6
NC(=O)CC(NC(=O)c1cccc(Br)c1)c1ccc(NC2CCC2)c([N+](=O)[O-])c1 (stereo not given)	0.5	.	.	.	-7.2
O=C(CCC1N=C2c3ccccc3N=C(SCC(=O)NCC3CCCO3)N2C1=O)NCc1ccc(F)cc1 (stereo not given)	0.9	.	.	.	5.6
Cc1noc(C)c1C(=O)Nc1nc(C23CC4CC(CC(C4)C2)C3)cs1	-0.7	7.1	8.8	6.0%	5.1
Cn1nnnc1SCC(=O)Nc1ccc(Cl)cn1	-0.5	.	.	.	-10.2
Cc1cc2oc(=O)cc(CN3CCCCC3C)c2cc1C (stereo not given)	0.0	.	.	.	6.3
C/C(=N\NC(=O)C1CC1)c1cccnc1	-2.0	4.8	-18.1	-1.1%	-2.5
COc1ccc(CCc2nc(-c3cccs3)no2)cc1	6.1	.	.	.	-1.3
COCC(C)N1CCC(n2nccc2NC(=O)CCCc2ccccc2)CC1 (stereo not given)	-0.1	.	.	.	3.8

High-throughput results as filed in PubChem.
